Compound activity deposited in PubChem by National Center for Advancing Translational Sciences (NCATS).
EPAC1 ag val = human EPAC1 agonism, validation; actives 1% (n = 16,000); O95398; Potency, µM, for inactives: max response, positive = active, hits mostly activators; AID 1645883; EPAC1 Rap1b BODIPY-GDP exchange, fluorescence; active = well fitted activation curve with a large enough effect; inconclusive = small, poorly fitted or top-dose-only effect; inactive = no such curve, though single readings can be large or run the other way;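 note: nearly all actives have a fitted effect of over 70% in size; series mostly up to about 76 or 150 µM; scaled to a cAMP control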
Target sequence (O95398 whole entry, looked up): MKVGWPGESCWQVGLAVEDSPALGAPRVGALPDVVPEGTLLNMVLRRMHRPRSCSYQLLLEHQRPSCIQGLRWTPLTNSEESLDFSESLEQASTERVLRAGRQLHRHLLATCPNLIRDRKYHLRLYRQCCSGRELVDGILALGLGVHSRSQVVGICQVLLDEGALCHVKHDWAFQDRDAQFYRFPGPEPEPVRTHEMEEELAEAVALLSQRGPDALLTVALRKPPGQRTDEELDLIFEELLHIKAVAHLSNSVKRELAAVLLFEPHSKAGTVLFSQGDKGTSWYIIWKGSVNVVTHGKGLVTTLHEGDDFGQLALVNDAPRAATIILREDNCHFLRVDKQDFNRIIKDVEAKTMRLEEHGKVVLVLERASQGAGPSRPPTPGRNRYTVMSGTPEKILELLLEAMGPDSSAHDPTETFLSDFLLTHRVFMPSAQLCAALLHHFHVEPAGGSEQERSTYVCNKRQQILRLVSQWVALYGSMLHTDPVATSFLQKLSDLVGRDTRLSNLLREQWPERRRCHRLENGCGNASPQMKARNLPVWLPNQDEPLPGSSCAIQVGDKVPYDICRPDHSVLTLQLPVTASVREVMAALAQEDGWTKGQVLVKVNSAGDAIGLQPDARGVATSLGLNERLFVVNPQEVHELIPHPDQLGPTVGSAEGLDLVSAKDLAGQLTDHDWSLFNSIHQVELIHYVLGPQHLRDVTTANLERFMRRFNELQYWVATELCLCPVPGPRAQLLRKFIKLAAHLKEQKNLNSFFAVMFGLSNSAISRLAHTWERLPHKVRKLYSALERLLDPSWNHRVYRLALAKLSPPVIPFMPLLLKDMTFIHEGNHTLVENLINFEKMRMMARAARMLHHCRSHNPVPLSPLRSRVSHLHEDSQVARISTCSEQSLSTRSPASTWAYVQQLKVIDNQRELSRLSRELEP
Numbers without * were called inactive; ? = inconclusive; & = joins results of further samples; [ ] = remark or other dose. % is set by controls: 0 for no effect and ±100 for the full control effect; potency is the fitted concentration of half-maximal effect. This is a subset. The share of hits here may be higher or lower than overall.

SMILES	EPAC1 ag val
COCC(=O)Nc1cc(C(=O)N2CCCOc3c(cccc3OC)C2)c2c(c1)nc(C1CCC1)n2C	16%
CN1CCN(c2ncc3nc(-c4cccs4)c(=O)n(C[C@H]4CCCO4)c3n2)CC1	-79%[inhibitor]
O=C(/C=C/c1ccccc1)c1ccc(O[C@H]2OC(CO)C(O)C(O)C2O)cc1O (stereo partly specified)	-9%
CC[N+](CC)(CC)CCOc1ccc(/C=C\c2ccccc2)cc1	2%
COc1ccccc1-c1cncnc1NCc1ccccc1	-5%
CC1(C)SC2C(NC(=O)C(NC(=O)N3CCNC3=O)c3ccccc3)C(=O)N2C1C(=O)O (stereo unspecified)	?
COC(=O)C[C@H]1c2ccccc2S(=O)(=O)N1c1cccc(OC)c1	?
CCCc1cc(OC)c2c(c1)OCO2	-24%
CCCCOC(=O)c1cc2c(cn1)[nH]c1ccccc12	-12%&-7%&-14%
CO[C@H]1C=CO[C@@]2(C)Oc3c(C)c(O)c4c(O)c(c(C=NN5CCN(C)CC5)c(O)c4c3C2=O)NC(=O)C(C)=CC=C[C@H](C)[C@H](O)[C@@H](C)[C@@H](O)[C@@H](C)[C@H](OC(C)=O)[C@H]1C	-18%

3 compounds already listed, sorted by number of heavy atoms, ascending.
SMILES	EPAC1 ag val
COc1ccccc1-c1cncnc1NCc1ccccc1	-5%
COC(=O)C[C@H]1c2ccccc2S(=O)(=O)N1c1cccc(OC)c1	?
CC1(C)SC2C(NC(=O)C(NC(=O)N3CCNC3=O)c3ccccc3)C(=O)N2C1C(=O)O (stereo unspecified)	?

(cont.)
SMILES	EPAC1 ag val
Cc1noc(C)c1C(=O)N1CCC[C@@]2(CCN(C(=O)NC(C)C)C2)C1	-36%[inhibitor]
COc1ccc(Oc2ncc3nc(-c4ccc(Cl)cc4)c(=O)n(C[C@H]4CCCO4)c3n2)cc1	?
O=C1OC2(c3ccccc31)c1cc(I)c(O)c(I)c1Oc1c2cc(I)c(O)c1I	32µM*
OC(c1ccc2c(c1)CN(Cc1cccn1-c1ncccn1)CCO2)C1CCCCC1 (stereo unspecified)	-8%
CC[C@H](C)C(=O)O[C@H]1CCC=C2C=C[C@H](C)[C@H](CC[C@@H]3C[C@H](O)CC(=O)O3)[C@H]21	-28%
Cc1ccccc1C(=O)O[C@H]1[C@H](Cc2ccccc2)NS(=O)(=O)[C@H]2CC3C=C[C@]12O3	10%
C=C1C[C@]23C[C@@]1(O)CC[C@H]2[C@@]12C=C[C@H](O)C(C)(C(=O)O1)[C@H]2[C@@H]3CC(=O)O	-9%
COc1cccc(-c2ccc3ncnc(NCc4ccccc4OC)c3c2)c1	?
CS(=O)(=O)N1CCC2(CC1)CN(c1ccc(-c3ccccc3)cc1)C2	-12%
CC(C)(C)[C@H]1CCC(=O)N([C@H](CSc2ccccc2)Cc2ccccc2)CC1	-21%
N[C@@H](CSSC[C@H](N)C(=O)O)C(=O)O	-6%
Cn1c(-c2nc(-c3ccccc3)cs2)nc2ccccc21	?
N#Cc1cccc(NC(=O)N2CCCC3(CCN(S(=O)(=O)c4ccccc4)CC3)C2)c1	-48%[inhibitor]
C/C=C/c1ccc(O)c(OC)c1	2%
CC(=O)N1CCC2(CCCN(Cc3ccc(C#N)cc3)C2)CC1	-44%[inhibitor]
CN(C)C(=O)c1ccc(/C=C/c2ccnc3ccccc23)cc1	?
COc1cccc(CNC(=O)c2c(OC)cc(=O)n3c2CCN(C(=O)c2ccoc2C)CC3)c1	-7%
O=C(NCCCN1CCCCCC1)[C@@H](c1ccccc1)C1CCCCC1	-21%
CN(C)C(=O)c1ccc(-c2ccc3ncnc(N(C)Cc4ccco4)c3c2)cc1	3%
CCCCCCCCCC[n+]1ccc(/C=C/c2c(C)[nH]c3ccccc23)c2ccccc21	?

Given with values ahead of the structure: part of the list above
EPAC1 ag val | Molecule
-12% | CS(=O)(=O)N1CCC2(CC1)CN(c1ccc(-c3ccccc3)cc1)C2
-21% | CC(C)(C)[C@H]1CCC(=O)N([C@H](CSc2ccccc2)Cc2ccccc2)CC1
-6% | N[C@@H](CSSC[C@H](N)C(=O)O)C(=O)O

Continuation:
SMILES	EPAC1 ag val
COc1ccc(C(=O)NCC2Cc3cc(C)cc(-c4nc5ccccc5s4)c3O2)c(OC)c1OC (stereo unspecified)	-9%
Cc1noc(C)c1-c1cc(N2CCN(C)CC2)ncn1	-5%
Cn1cc(-c2nc3cnc(Oc4cccc(Cl)c4)nc3n(CCC#N)c2=O)c2ccccc21	?
CN(C)CCCO[C@@H]1[C@H]2OC(C)(C)O[C@H]2O[C@@H]1[C@H](O)CO	-4%
CO[C@]12CC(COC(=O)c3cncc(Br)c3)CN(C)[C@@H]1Cc1cn(C)c3cccc2c13 (stereo partly specified)	-13%
O=C1C=CC2=C3c4cc(O)c(O)cc4C[C@]3(O)COC2=C1	?
COc1cccc(N2[C@@H](CC(C)=O)c3ccccc3S2(=O)=O)c1	27%
COC1(C)CCC2OC2(C)CCC2C1CC2(C)C (stereo unspecified)	11%
COc1ccc(-c2nc3ccc(C4=NNC(=O)CC4C)cc3[nH]2)cc1 (stereo unspecified)	9%
CN1CCC(=C2c3ccccc3Sc3ccccc32)CC1	-2%
C=CCN([C@H](C(=O)OC)C(C)C)S(=O)(=O)CCNCc1ccccc1	-35%[inhibitor]
CC(=O)Oc1c(C)c(C)c2c(c1C)CCC(C)(CCCC(C)CCCC(C)CCCC(C)C)O2 (stereo unspecified)	-11%&-18%
COc1cc(/C=C\c2ccc(OC)cc2OC)cc(OC)c1	4%
COc1cccc(Nc2ncc3ncc(=O)n(C)c3n2)c1	-15%
CCOC(=O)C1=C[C@]2(CC)CCCN3CCc4c(n1c1ccccc41)[C@@H]32	-8%&-21%&-13%
CC(C)Cc1nc2cc(NS(=O)(=O)N(C)C)cc(C(=O)N3CC4(C)CC3CC(C)(C)C4)c2n1C (stereo unspecified)	-2%
COc1ccc(-c2cc(=O)c3ccccc3o2)cc1OC	27%
O=C(c1ccco1)N1CCC[C@@]2(CCN(c3ncccn3)C2)C1	-54%[inhibitor]
FC(F)(F)C(F)(F)C(F)(F)C(F)(F)C(F)(F)C(F)(F)F	3%
CCCCCCCNS(=O)(=O)c1cccc2c(Cl)cccc12	-3%
N#Cc1ccccc1-c1ccc2ncnc(NCCN3CCOCC3)c2c1	-23%
COc1cccc(-c2ccc3ncnc(N4CCN(C)CC4)c3c2)c1	11%
CC(=O)OCC1OC(Oc2cc(OC(C)=O)c3c(=O)cc(-c4ccc(OC(C)=O)c(OC(C)=O)c4)oc3c2)C(OC(C)=O)C(OC(C)=O)C1OC(C)=O (stereo unspecified)	2%
CNCC(=O)N[C@@H](CCCN=C(N)N)C(=O)N[C@H](C(=O)N[C@@H](Cc1ccc(O)cc1)C(=O)N[C@H](C(=O)N[C@@H](Cc1cnc[nH]1)C(=O)N1CCC[C@H]1C(=O)N[C@@H](C)C(=O)O)C(C)C)C(C)C	-1%
COc1cccc2c1C(=O)CC(c1ccccc1)O2 (stereo unspecified)	2%
CCN1CCCC1CNC(=O)c1cnn(-c2nccc(-c3ccccc3F)n2)c1C (stereo unspecified)	10%
NC(CCC(=O)NC(CCSC(CC(=O)O)C(=O)O)C(=O)NCC(=O)O)C(=O)O (stereo unspecified)	2%
CNc1ccnc(-c2ccccc2CN(C)C)n1	?
COC(=O)N1CCC2(CCCN(Cc3nccs3)C2)CC1	-17%
CC1(C)[C@@H](OC(=O)CCC(=O)O)CC[C@]2(C)[C@H]3C(=O)C=C4[C@@H]5C[C@@](C)(C(=O)O)CC[C@]5(C)CC[C@@]4(C)[C@]3(C)CC[C@@H]12	-7%&-21%
N#C/C(=C\c1ccc(O)c(O)c1)C(N)=O	-17%&-10%
COc1cc(-c2nc(C)cnc2C)cc2c1OCCN(C(=O)Cc1cc(OC)c(OC)c(OC)c1)C2	0%
COc1ccc2[nH]cc(CCNc3ncncc3-c3c(C)noc3C)c2c1	-11%
Cc1ncc2c(c1CNC(=O)c1ccc3c(c1)OCO3)CCN(C(=O)c1ccc3ccccc3c1)C2	4%
COc1cccc(Cn2c(=O)c(-c3cc(F)cc(F)c3)nc3cncnc32)c1	?
Cc1noc(C)c1-c1ccc2ncnc(N3CCN(C)CC3)c2c1	-39%[inhibitor]
Cn1cccc1C(=O)N1CCC2(CCN(Cc3ccc(C#N)cc3)CC2)CC1	10%
Nc1ncnc2c1[nH]c(=O)n2C1OC(CO)C(O)C1O (stereo unspecified)	2%
CCNc1ncc2nc(-c3cc(F)cc(F)c3)c(=O)n(Cc3ccc(F)cc3)c2n1	-18%
COc1ccccc1-c1ccnc(-n2ncc(C(=O)NCCc3ccncc3)c2C)n1	6%
CC(C)CN1CCC2(CC1)CCN(C(=O)c1cccn1C)CC2	-53%[inhibitor]
COc1ccc(SC[C@H](C)CN2CC[C@H](C(C)(C)C)CCC2=O)cc1	-4%
CC(CN1c2ccccc2Sc2ccc(S(=O)(=O)N(C)C)cc21)N(C)C (stereo unspecified)	-54%[inhibitor]
N=C(N)SCCN	2%&17%&1%
O[C@@H](CNC[C@H](O)[C@H]1CCc2cc(F)ccc2O1)[C@@H]1CCc2cc(F)ccc2O1	-60%[inhibitor]
COC(=O)N1CCC2(CCCN(c3ncccn3)C2)CC1	7%
COC1C(O)C(O)C(O)C(O)C1O (stereo unspecified)	25%
CCCCCCC[n+]1ccc(/C=C/c2c[nH]c3ccccc23)c2ccccc21	?
c1cncc(CNc2ncncc2-c2ccoc2)c1	-31%[inhibitor]
CC(CCc1ccc2c(c1)OCO2)NN (stereo unspecified)	9%

Following part:
SMILES	EPAC1 ag val
O=C(CN1Cc2ccccc2OC(c2ccsc2)C1)NCc1ccc2c(c1)OCO2 (stereo unspecified)	?
O=c1cc(-c2ccccc2F)[nH]c2cc3c(cc12)OCO3	4%
CCCCCCCCCCCCCCC(F)C(=O)O (stereo unspecified)	-9%
COC(=O)C1CCCCN1Cc1ccc2c(c1)CN(Cc1cn[nH]c1-c1ccc(F)cc1)CCO2 (stereo unspecified)	12%
O=C1C[C@H]2C=CCc3cccc(c32)CN1Cc1cccc(F)c1	-84%[inhibitor]
COc1ccc2c(c1)CCc1cnc(-n3ncc(C(=O)NCc4cc(C)no4)c3C3CC3)nc1-2	-7%
Cc1cc(C(=O)NCCN2Cc3ccccc3OC(c3ccccc3F)C2)no1 (stereo unspecified)	-1%
COc1ccccc1Oc1coc2cc(O)ccc2c1=O	13%
Nc1cc(N2CCCCC2)nc(N)[n+]1OS(=O)(=O)[O-]	0%&-9%
COc1ccc(-c2nc3cnc(OC)nc3n(C3CC3)c2=O)cc1	-6%
O=c1c(CN2CCOc3ccc(CN4CCC(Oc5cccnc5)CC4)cc3C2)coc2ccccc12	19%
COc1ccc2[nH]c3c(c2c1)CCNC3=O	-16%
CCCCNC(=O)O[C@@H]1C[C@H]2CCCC(=O)N3CC[C@@H](C1)[C@@H]23	9%
CNc1ncncc1-c1ccccc1C	-36%[inhibitor]
O=C(NCc1cccnc1)[C@@H]1CC=C[C@@H]2CCN(Cc3ccccc3)C(=O)[C@@H]21	-39%[inhibitor]
CN1CCCN(C(c2ccccc2)c2ccc(Cl)cc2)CC1 (stereo unspecified)	-15%
CN(C)c1ncc2nc(-c3ccc(F)cc3)c(=O)n(C3CC3)c2n1	13%
O=[N+]([O-])c1ccc(CSc2ncnc3c2ncn3C2OC(CO)C(O)C2O)cc1 (stereo unspecified)	-10%
C=C1CC[C@H](O)C/C1=C/C=C1\CCC[C@]2(C)C([C@H](C)CCCC(C)(C)O)CC[C@@H]12 (stereo partly specified)	4%&9%
COCCn1c(=O)c(-c2cccc(C#N)c2)nc2cnc(N(C)C)nc21	?

3 of the entries above in order of the EPAC1 ag val value, high to low:
SMILES	EPAC1 ag val
CN(C)c1ncc2nc(-c3ccc(F)cc3)c(=O)n(C3CC3)c2n1	13%
CCCCNC(=O)O[C@@H]1C[C@H]2CCCC(=O)N3CC[C@@H](C1)[C@@H]23	9%
O=[N+]([O-])c1ccc(CSc2ncnc3c2ncn3C2OC(CO)C(O)C2O)cc1 (stereo unspecified)	-10%

(listing goes on)
SMILES	EPAC1 ag val
CCOC(=O)C[C@H]1c2ccccc2S(=O)(=O)N1Cc1ccc(Cl)cc1	6%
NC1(C(=O)O)C[C@H](C(=O)O)[C@H](C(=O)O)C1 (stereo partly specified)	-22%&-9%&-1%
Cn1c(=O)c(-c2ccc(F)cc2)nc2cnc(Nc3ccccc3)nc21	8%
CN(Cc1cccc2ncccc12)C(=O)c1cnn(-c2ncc3c(n2)-c2ccccc2CC3)c1C1CC1	0%
Nc1ncnc2c1nc(Br)n2C1OC2COP(=O)(O)O[C@@H]2C1O (stereo partly specified)	0.45µM*
CC(C)C1CCC(C(=O)N[C@H](Cc2ccccc2)C(=O)O)CC1 (stereo partly specified)	-26%
Cc1nc2cnc(Oc3cccc(Cl)c3)nc2n(Cc2ccc(F)cc2)c1=O	26%
COc1ncc2nc(-c3ccccc3)c(=O)n(C[C@H]3CCCO3)c2n1	8%
CCCCCC(C)N (stereo unspecified)	27%
COc1ccccc1CN1CC2(CCN(C(=O)c3cccc(F)c3)CC2)C1	-31%[inhibitor]
Cn1cc(-c2nc3cnc(Oc4ccccc4)nc3n(C3CC3)c2=O)c2ccccc21	-28%
CCn1nc(C)cc1C(=O)NCC1Cc2cccc(-c3cccnc3)c2O1 (stereo unspecified)	-5%
O=C(C[n+]1ccncc1)c1ccc2c(c1)CCCC2	-15%
COc1ccccc1-c1cncnc1NCCN1CCOCC1	?
CCCOC(=O)c1c(-c2ccccc2)nc(CC)c(C(=O)SCC)c1CCC	1%
CN(C)c1nc(-c2cccnc2)nc2ccccc12	18%
Cc1cc(=O)oc2c(O)c(O)ccc12	-3%
